Anthrax LT inh = qHTS Assay for Anthrax Lethal Toxin Internalization; Cells, anthrax lethal toxin internalization, FRET ratio (460/530); Potency, µM (highest dose often 40 µM), for inactives: at the top dose activity change, negative = inhibition, hits mostly inhibitors; hit rate 0.67% among 70,000; AID 912, 2007; active = well fitted falling ratio curve with the 530 nm signal flat; inconclusive = other ratio curves, or a change in one channel alone; inactive = flat curves in the ratio and both channels; the % refers to the ratio; also: % is scaled to controls: 0 for no effect and ±100 for the full control effect; nearly all actives have a fitted effect of over 50% in size; tested in ME-180 cells; beta-lactamase reporter
SmPrx2 inh = Schistosoma Mansoni Peroxiredoxins (Prx2). AID 448, 2006. Potency, µM. hit rate 0.07% among 65,000. Schistosoma mansoni peroxiredoxin 2 (Prx2). S. mansoni Prx2 activity coupled to TGR/GSH (TGR is thioredoxin glutathione reductase), NADPH fluorescence loss, qHTS; some inactives read as strong as hits; active means full or partial inhibition curve with a strong effect at the top dose; inconclusive means weaker partial or single-point curve; inactive means no accepted curve; also: series up to 57 µM; many of its hits are not listed in these tables
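Coupled assay in which S. mansoni TGR passes NADPH reducing equivalents via glutathione to Prx2, which reduces H2O2. Compounds were preincubated 15 min at room temperature with 25 nM TGR/50 nM Prx2 mix. Kinetic NADPH fluorescence loss (ex 365/em 450 nm) was monitored.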
* marks the source's active call; other numbers are inactive results; u = inconclusive; x = not tested or not shown; & = joins results of further samples; [ ] = another dose, or the depositor's remark. Potency is read from the fitted curve at half-maximal effect. Some of the compounds tested (hit frequency here may not be typical).

SMILES | Anthrax LT inh | SmPrx2 inh
O=C(CN1C(=O)COc2ccccc21)c1cccc(Cl)c1 | -11% | >57
CS(=O)(=O)Nc1c(O)ccc2c1CCC[C@H]2C1=NCCN1 | -15% | >57
CC(Cl)(Cl)Cl | 0% | x
Cc1ccc(-n2nc(C)c3c(-c4cccs4)c(C#N)c(N)nc32)cc1 | u | >57
COc1ccccc1CNC(=O)C1CCCN(S(=O)(=O)c2c(C)[nH]c(=O)[nH]c2=O)C1 (stereo not given) | 10% | >57
O=c1c(O)c(-c2ccc(O)c(O)c2)oc2cc(O)ccc12 | -12%&-17% | >57&>57
CS/C(=N\S(=O)(=O)c1cccs1)NC(=O)CSc1nc2ccccc2s1 | u | >57
Cc1c(NC(=O)c2c(F)cccc2F)c(=O)n(-c2ccccc2)n1C | -1% | >57
Cc1cc(C)cc(N)c1 | u | x
COc1ccccc1N1CCN(c2ccc(-c3ccccc3)nn2)CC1 | -18% | >57
[N-]=[N+]=CC(=O)COC(=O)c1ccccc1 | u | >57
CCC(CC)C(=O)Nc1c2c(nn1-c1ccc(OC)cc1)CS(=O)(=O)C2 | -4% | >57
CCOC(=O)N1CCC(Nc2c(NCCN3CCN(c4cccc(Cl)c4)CC3)c(=O)c2=O)CC1 | -8% | >57
C=C(C)COc1ccc(-c2n[nH]c(C)c2-c2ccccc2OC)c(O)c1 | u | >57
COc1ccccc1CNC(=O)c1ccc(S(=O)(=O)N2CCCC2)cc1 | 0% | >57
COc1ccc(C(=O)OCC(=O)c2cc(OC)ccc2OC)c(OC)c1 | -2% | >57
Cc1ccc2[nH]c(=O)c(CN(C)C(=O)c3ccccn3)cc2c1 | -10% | >57
Cc1cc(NC(c2cccnc2)c2ccc3cccnc3c2O)no1 (stereo not given) | 19% | >57
Cc1nn(-c2ccccc2)c2sc(C(=O)N3CCCCC3)cc12 | -14% | >57
CN1C(=O)C2(OCC(COc3ccc(Cl)cc3)O2)c2ccccc21 (stereo not given) | u | >57
O=S(=O)(NCc1ccco1)N1CCCCCC1 | -9% | >57
Cc1cccc(N2CCN(CCNC(=O)c3cc4c(s3)CS(=O)(=O)C4)CC2)c1C | -15% | >57
COc1ccc2[nH]c(=O)c3c(c2c1)OC(C)(C)C=C3 | u | >57&>26
COC(=O)N1[C@H](Cc2ccccc2)C=C[C@]1(C)C(=O)NCc1ccc(N(C)C)cc1 | 7% | x
O=C(Nc1ccc(S(=O)(=O)N2CCOCC2)cc1)c1ccco1 | -9% | >57
COc1ccc(CNc2ncnc3ccc(-c4cccc(NS(C)(=O)=O)c4)cc23)c(OC)c1 | u | >57
Cc1cccc(OCC(=O)Nc2ccc(S(=O)(=O)N3CCCC3)cc2)c1 | u | >57
COc1ccc(C/C(O)=C(\C#N)c2nc3ccccc3s2)cc1 | 6% | >57
Nn1c(SCC(=O)NC2CCCCC2)nnc1-c1ccccc1 | -2% | >57
Cc1ccc(-c2c3c(=O)n(C)c(=O)n(C)c3cn2Cc2cccnc2)cc1 | x | >57
O=C(Cn1ncc2c1-c1ccccc1OC2)N(Cc1ccco1)C1CCCCC1 | -11% | >57
CC1=C(C(=O)NCCN2CCOCC2)C2(CCC(C)CC2)OC1=O (stereo not given) | -6% | >57
CCc1nnc(NC(=O)c2ccc(N(C)S(=O)(=O)c3ccccc3)cc2)s1 | 0% | >57
Cc1ccc(S(=O)(=O)Nc2cc(C)nn2-c2ccccc2)cc1 | 5% | >57
O=C(Nc1ccccc1)N1CC2(CCN(S(=O)(=O)c3ccccc3)CC2)C1 | 3% | >57
CCC(CO)N=CC1=C(O)CC(C)(C)CC1=O (stereo not given) | 12% | x
O=C(COC(=O)C1=COCCO1)Nc1ccccc1Oc1ccccc1 | 6% | >57
O=C(CN(Cc1ccc2c(c1)OCO2)C(=O)CSc1nc2ccccc2o1)NC1CCCCC1 | -5% | >57
COc1cc(S(C)=O)ccc1-c1nc2ncccc2[nH]1 (stereo not given) | 1%[3.58 µM] | >57
CCSc1nc(-c2ccco2)ccc1C#N | u | >57
CCOC(=O)c1c(-c2ccc(C)cc2C)csc1NC(=O)CSc1nnnn1C | u | >57
COc1cc(NC(=O)c2ccc3c(=O)n(Cc4ccco4)c(=S)[nH]c3c2)cc(OC)c1OC | -29% | >57
Cc1nc2cnc(N(C)C)nc2n(C[C@H]2CCCO2)c1=O | 1% | >57
Cc1nc(/C=[N+](\[O-])C(C)(C)/C=N/O)n(O)c1C | x | >57
C/C(=C\c1ccccc1)CN1CCN(c2ccccc2)CC1 | u | x

Entries above containing a thiophene ring, fused or not (5):
SMILES | Anthrax LT inh | SmPrx2 inh
Cc1ccc(-n2nc(C)c3c(-c4cccs4)c(C#N)c(N)nc32)cc1 | u | >57
CS/C(=N\S(=O)(=O)c1cccs1)NC(=O)CSc1nc2ccccc2s1 | u | >57
Cc1nn(-c2ccccc2)c2sc(C(=O)N3CCCCC3)cc12 | -14% | >57
Cc1cccc(N2CCN(CCNC(=O)c3cc4c(s3)CS(=O)(=O)C4)CC2)c1C | -15% | >57
CCOC(=O)c1c(-c2ccc(C)cc2C)csc1NC(=O)CSc1nnnn1C | u | >57

(continued)
SMILES | Anthrax LT inh | SmPrx2 inh
COc1ccc(OC2C=CC(c3ccccc3)OC2CO)cc1 (stereo not given) | 1%[8 µM] | x
O=C(c1cccc(F)c1)N1CCC2(CC1)CN(c1ncccn1)C2 | -15% | >57
FC(F)C(F)(F)C1=CC(c2ccccc2)=NCCN1 | -16% | x
Cn1c(=O)c2[nH]c(SCc3ccccn3)nc2n(C)c1=S | -1%[8 µM] | >57
COCc1cc(=O)[nH]c(Nc2nc(C)c3ccc(C)cc3n2)n1 | 8% | >57
O=C(CCN1CCN(c2ccccc2)CC1)Nc1nccs1 | -9% | >57
CCOC(=O)c1c(C)nc2sccn12 | 6% | >57
CSC1=NP(=S)(SC)N2CCCC2=C1C#N (stereo not given) | -8% | >57
Cc1cc(NC(=O)c2ccc(Cl)cc2)no1 | -22% | >57
CCOc1ccc(-c2cc(C(=O)N3CCN(C)CC3)c3ccccc3n2)cc1 | -2% | >57
Cc1ccc(S(=O)(=O)CCc2nc3ccccc3n2CCC#N)cc1 | 11% | >57
O=C(NCCc1ccccn1)C1CC(=O)N(Cc2ccccc2Cl)C1 (stereo not given) | 7% | >57
CC1CCCN(C(=O)CSc2nnc(-c3ccc(S(=O)(=O)N4CCOCC4)cc3)n2C)C1 (stereo not given) | u | >57
CCC(C)(C)NC(=O)CN(C(=O)c1snc(C(N)=O)c1N)c1ccc2c(c1)OCO2 | u | >57
O=C(NCc1ccc(F)cc1)c1noc2c1CCCC2 | 0% | >57
COc1ccc(N2C(=O)CC(N3CCN(c4ccc(S(=O)(=O)N5CCCC5)cc4)CC3)C2=O)cc1 (stereo not given) | 14% | >57
Cn1c(=O)[nH]c(=O)c2c1nc(N1CCNCC1)n2CCOc1ccccc1 | -1% | >57
Cc1noc(C)c1C(=O)N1CCC2(CCN(Cc3ccccc3)CC2)CC1 | u | >57
CCc1ccc(NC(=O)CS(=O)CC(=O)NC(C)CCc2ccco2)cc1 (stereo not given) | -8% | >57
COc1ccc2[nH]cc(CCNc3ncnc4ccc(-c5c(C)noc5C)cc34)c2c1 | 1% | >57
O=C(NCCOC(=O)c1ccc(S(=O)(=O)N2CCOCC2)cc1)c1cccnc1 | 2% | >57
NC[C@H](O)c1cc(O)c(O)cc1F | -5% | >26
CCOC(=O)Cc1csc(NC(=O)CCS(=O)(=O)Cc2ccccc2)n1 | -13% | >57
CN(CCC(=O)O)C1=Nc2ccc(Cl)cc2C(c2ccccc2)=[N+]([O-])C1 | u | >57
CC(C)c1nnc(SCC(=O)NCc2ccco2)n1C | -1% | >57
N=c1c(S(=O)(=O)c2ccccc2)cc2c(=O)n3ccccc3nc2n1Cc1ccco1 | 1% | >57
CN(C)Cc1ccccc1-c1ccc2ncnc(N(C)C)c2c1 | -11% | >57
CC(=O)NC12CC3CC(C1)CC(C(=O)OCC(=O)c1ccc4c(c1)OCCO4)(C3)C2 | -9% | x
COc1ccccc1N1CCN(c2cc(=O)n(Cc3ccc(F)cc3)c(=O)[nH]2)CC1 | -16% | >57
CCn1nc(C)c(Oc2ccccc2O)c1C | -9% | >57

In the list so far, these contain a Cl atom.
SMILES | Anthrax LT inh | SmPrx2 inh
O=C(CN1C(=O)COc2ccccc21)c1cccc(Cl)c1 | -11% | >57
CC(Cl)(Cl)Cl | 0% | x
CCOC(=O)N1CCC(Nc2c(NCCN3CCN(c4cccc(Cl)c4)CC3)c(=O)c2=O)CC1 | -8% | >57
CN1C(=O)C2(OCC(COc3ccc(Cl)cc3)O2)c2ccccc21 (stereo not given) | u | >57
Cc1cc(NC(=O)c2ccc(Cl)cc2)no1 | -22% | >57
O=C(NCCc1ccccn1)C1CC(=O)N(Cc2ccccc2Cl)C1 (stereo not given) | 7% | >57
CN(CCC(=O)O)C1=Nc2ccc(Cl)cc2C(c2ccccc2)=[N+]([O-])C1 | u | >57

Next part.
SMILES | Anthrax LT inh | SmPrx2 inh
CCCN(Cc1cc2cccc(C)c2[nH]c1=O)C(=O)c1cccc(OC)c1 | -2% | >57
CS(=O)(=O)N1CCN(C(=O)NC23CC4CC(CC(C4)C2)C3)CC1 | 10% | >57
CC(C)NC(=O)N1CC2(CCN(S(=O)(=O)c3ccccc3)CC2)C1 | 14% | >57
CCOc1ccc(OCC)c(NC(=O)C2CCCN(S(=O)(=O)c3c(C)noc3C)C2)c1 (stereo not given) | 3% | >57
O=C(C1CCC1)N1CCc2cc(S(=O)(=O)N3CCN(c4ccccn4)CC3)ccc21 | u | >57
N#Cc1c2c(c(NCCN3CCOCC3)n3c1nc1ccccc13)CCCC2 | -5% | >57
CCOc1ccc(N=Cc2c(O)cc(C)oc2=O)cc1 | 15% | >57
COc1ccc2[nH]c(=O)c(CN(Cc3ccco3)C(=O)c3ccccc3)cc2c1 | 6% | >57
NCCC[C@@H](CC(=O)N[C@@H]1CCCC[C@H]1C(=O)N[C@H](CC(=O)N[C@@H](CCC(=O)O)CC(=O)O)Cc1ccccc1)NC(=O)C[C@H](CO)NC(=O)[C@@H]1CCCC[C@H]1N | -3% | >57
CCC(C)C1C(C#N)=C(N)Oc2n[nH]c(-c3ccccc3)c21 (stereo not given) | -9% | >57
Cc1ccc(CNC(=O)[C@H](C)[C@H]2C[C@]2(C)[C@H](NC(=O)OCc2ccccc2)c2ccccc2)c(F)c1F | u | >57
Cc1nc(CCNC(=O)Cc2ccccc2)cs1 | 5% | >57
COc1cc2c(cc1OC)C(c1ccc(N(C)C)cc1)CC(=O)N2 (stereo not given) | 9% | >57
Cc1cc(-c2ccco2)n(-c2ccccc2)n1 | -15% | >57
CCOC(=O)CSc1nnc(Cc2ccccc2)n1CC1CCCO1 (stereo not given) | 2% | >57
O=C(CN1CCN(CC(=O)c2ccc(F)cc2)CC1)Nc1ccccc1Cl | u | >57
Cn1c(=O)c2c(SCC(=O)N3CCC(Cc4ccccc4)CC3)nc(C3CC3)nc2n(C)c1=O | 1% | >57
Fc1c(F)c(F)c(CSc2nc3ccccc3[nH]2)c(F)c1F | u | >57
C[C@@H](CN1CCC(Cc2ccccc2)CC1)[C@H](O)c1ccc(O)cc1 | 12% | >57
CC(C)C[C@@H](CC(=O)N[C@@H](CCC(=O)O)CC(=O)O)NC(=O)[C@@H]1CCCC[C@H]1NC(=O)C[C@H](CCCN)NC(=O)C[C@H](CO)NC(=O)[C@@H]1CNCC[C@H]1N | -13% | >57
CCCCCC1CC(=O)N(Cc2ccccc2)C(=O)N1 (stereo not given) | -16% | >57
Cc1ccc(C(=O)COC(=O)c2cnccn2)cc1 | -1% | >57
CCCCNC(=O)C(c1ccc(OCC(=O)OC)c(C(=O)OC)c1)N(CCc1ccccc1)C(=O)CCCCCN1C(=O)NC(c2ccc(-c3ccccc3)cc2)C(C(=O)OCc2ccccc2)=C1C (stereo not given) | -4% | x
O=C(Nc1ccc(Cl)cc1)C(c1ccccc1)N(CCO)CCO (stereo not given) | 1% | >57
CCC(C)C(NC(=O)OC(C)(C)C)C(=O)NC(C(=O)N1CCCC1C(N)=O)C(C)CC (stereo not given) | 22% | >57
CCOC(=O)c1cnc(SCC(=O)Nc2cc(C(F)(F)F)ccc2N2CCOCC2)nc1N | -2% | >57
COC(=O)c1ccc(Cl)c(NC(=O)CN2CCN(Cc3ccccc3)CC2)c1 | -1% | >57
Cc1cc(NC(=O)C2(c3ccccc3)CCCC2)no1 | -1% | >57
CCCCOC(=O)C1=C(C)Nc2ncnn2C1c1ccc(OCC)c(OC)c1 (stereo not given) | -5% | >57
N#CC1=C(N)Oc2n[nH]c(CSc3ccccc3)c2C12C(=O)Nc1ccccc12 (stereo not given) | -4% | >57
CN1CCN(C(=O)c2ccc3c(=O)n(Cc4ccc(Cl)cc4)c(=S)[nH]c3c2)CC1 | -5% | >57
COc1ccccc1CNC(=O)CCN1C(=O)COc2ccccc21 | 16% | >57
